High-throughput results (PubChem)
SmPrx2 inh = inhibitors of Schistosoma mansoni peroxiredoxin 2 | S. mansoni Prx2 activity coupled to TGR/GSH (TGR is thioredoxin glutathione reductase), NADPH fluorescence loss, qHTS; some inactives read as strong as hits | Potency, µM | actives 0.07% (n = 65,000) | AID 448; active means full or partial inhibition curve with a strong effect at the top dose; inconclusive means weaker partial or single-point curve; inactive means no accepted curve; further: series up to 57 µM; many of its hits are not listed in these tables
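Prx2 inhibition was measured as reduced NADPH consumption when electrons flowed from NADPH through TGR and glutathione to Prx2 and H2O2. Plates were read kinetically over 8 min; enzyme reagents were held at 4 deg C during dispensing.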
Anthrax LT inh = anthrax lethal toxin internalization inhibition. AID 912. Potency, µM (highest dose often 40 µM), for inactives: at the highest dose activity change, negative = inhibition, usual class: inhibitors. actives 0.67% (n = 70,000). Cells, anthrax lethal toxin internalization, FRET ratio (460/530); active = well fitted falling ratio curve with the 530 nm signal flat; inconclusive = other ratio curves, or a change in one channel alone; inactive = flat curves in the ratio and both channels; the % refers to the ratio; further: on the % scale 0 is the no-effect control and ±100 the full control effect; nearly all actives have a fitted effect of over 50% in size; tested in ME-180 cells; beta-lactamase reporter
* marks the source's active call; other numbers are inactive results; u = inconclusive; x = not tested or not shown; & = joins results of further samples; [ ] = dose if it differs, or a comment. Potency means the concentration at half of the fitted maximal effect. This is a subset; count on the stated rates, not on these rows.

SMILES | SmPrx2 inh | Anthrax LT inh
CN(C)C(=O)Cn1cnc2c(cnn2-c2ccccc2Cl)c1=O | >57 | -1%
O=C(Nc1ccccc1F)NC1CCN(Cc2nnnn2Cc2ccc(F)cc2)CC1 | >57 | 9%
O=C(NCCc1ccccc1)C1CCN(C(=O)c2sccc2-n2cccc2)CC1 | >57 | u
COc1ccc(OC)c(S(=O)(=O)N(C)CC(=O)Nc2ccc3c(c2)OCCO3)c1 | >57 | u
COC(=O)c1cccc(NC(=O)c2cccc(OC)c2)c1 | >57 | 4%
COC(=O)[C@@]1(Cc2ccccc2)[C@H]2c3cc(C(=O)N4CCCC4)n(Cc4nc5ccccc5[nH]4)c3C[C@H]2CN1C(=O)c1ccccc1 | >57 | u
Cc1nn(Cc2c(Cl)cccc2Cl)c(C)c1NC(=O)c1cc(C(C)C)on1 | >57 | u
CCOc1ccc2c(ccc(/C=C\c3cc(C)c4cccnc4c3O)[n+]2C)c1 | >57 | -10%[8 µM]
N#Cc1nc(Cc2ccccc2)oc1NCCCn1ccnc1 | >57 | 12%
CC1Cc2ccccc2N1C(=O)CSc1nnnn1-c1ccc2c(c1)OCCO2 (centres undefined) | >57 | -8%
Cc1cc(NS(=O)(=O)c2ccc(NC(=O)c3ccco3)cc2)no1 | >57 | 1%
O=C(CSc1nnc(-c2ccc(S(=O)(=O)N3CCCC3)cc2)o1)NCc1ccco1 | >57 | -12%
CCOC(=O)c1ccc(NC(=O)C2C3CCC(C3)C2C(=O)O)cc1 (centres undefined) | >57 | x
Cn1cnnc1SCc1ccc(C(=O)O)cc1 | >57 | -4%
c1nc(NCCc2cnc[nH]2)c2[nH]cnc2n1 | >57 | 5%[8 µM]
CS(=O)(=O)N(CC(=O)NC1CCCC1)c1cccc(F)c1 | >57 | -13%
CCN(CC(=O)NC)S(=O)(=O)c1ccc(C)cc1 | >57 | 5%
COc1ccccc1-c1cc(-n2ccnc2)ncn1 | >57 | -3%
COc1ccc(C2(C(=O)Nc3c(C)n(C)n(-c4ccccc4)c3=O)CCCC2)cc1OC | >57 | 7%
COc1ccc(-c2csc(NC(C)=O)n2)cc1OC | >57 | 12%

Among those listed so far, these have fluorine:
SMILES | SmPrx2 inh | Anthrax LT inh
O=C(Nc1ccccc1F)NC1CCN(Cc2nnnn2Cc2ccc(F)cc2)CC1 | >57 | 9%
CS(=O)(=O)N(CC(=O)NC1CCCC1)c1cccc(F)c1 | >57 | -13%

Going on with the list:
SMILES | SmPrx2 inh | Anthrax LT inh
Cc1nnc(SCC(=O)Nc2ccc3c4c(cccc24)CC3)n1C | x | 2%
O=C1CCc2cc(S(=O)(=O)N3CCN(C(=O)c4ccco4)CC3)ccc2N1 | >57 | 12%
Cc1cc(C)c2c(n1)sc1c(N3CCN(CCO)CC3)ncnc12 | >57 | u
CC(=O)OCC1OC(C#Cc2ccc(Br)cc2)C=CC1OC(C)=O (centres undefined) | x | -8%[8 µM]
Cc1n[nH]c(C)c1C(=O)CC1(O)C(=O)N(CCc2ccccc2)c2ccc(Cl)cc21 (centres undefined) | >57 | -14%
CN(C)/N=N\c1nc[nH]c1C(N)=O | >57 | u
COc1ccc(CCn2nnnc2C(c2ccccc2)N2CCN(C)CC2)cc1OC (centres undefined) | >57 | -6%
c1ccc(SCc2nc(-c3ccncc3)no2)cc1 | >57 | 6%
CCCCOc1ccc(C2(C(=O)O)CCCC2)cc1 | >57 | 18%
CCc1nc(N2CCCCC2)c2oc3ccccc3c2n1 | >57 | x
COCCOC(=O)c1[nH]c2c(c1C)C(=O)C(C(=O)OC)C(C)C2 (centres undefined) | >57 | 4%
Clc1ccc(OCc2nc(-c3ccccn3)n[nH]2)cc1 | >57 | -11%
CN1C(=O)OC(C)(C)C1=O | >57 | 3%[3.58 µM]
COc1ccccc1NC(=O)N1CCC(C(=O)c2ccc(F)cc2)CC1 | >57 | -1%
CCOC(=O)C1CCCN(CCC(=O)Nc2ccc3c(c2)CCC3)C1 (centres undefined) | >57 | -8%
Cc1ccc2c(N)c(C)ccc2c1 | >57 | -8%
O=C(CSc1ncccc1-c1nc2ccccc2[nH]1)N1CCCCC1 | >57 | u
CCOC(=O)c1[nH]c(C)c(C(=O)Nc2cccc(Cl)c2C)c1C | >57 | 8%
C1=C(CCNc2nnnn2-c2ccccc2)CCCC1 | >57 | u
O=C(NCCNC(=O)c1ccco1)c1cccc(F)c1 | >57 | -2%
CC1Cn2c(CCc3ccccc3)nnc2S1 (centres undefined) | >57 | 13%
O=C1OC(N2CCN(C(=O)c3ccco3)CC2)c2ccccc21 (centres undefined) | >57 | 0%
O=C(O)c1cccc(C[C@H](Br)C(=O)O)c1 | >57 | -2%[8 µM]
Cn1c(=O)c(-c2cccs2)nc2cnc(OCc3ccccc3)nc21 | >57 | -5%
CCOC(=O)CN1Cc2cccc(C(=O)O)c2C1=O | >57 | 0%
CN1CCN(c2ncc3nc(-c4ccccc4)c(=O)n(C4CC4)c3n2)CC1 | >57 | u
Clc1ccc(-n2ncc3c(NCc4ccc5c(c4)OCO5)ncnc32)cc1 | >57 | u
CCOc1ccc(N(Cc2cc3cc(OC)ccc3[nH]c2=O)S(C)(=O)=O)cc1 | >57 | u
COc1c(C)c2c(c(O)c1C/C=C(\C)CCC(=O)O)C(=O)OC2 | >57&>26&>57 | u
Cc1nc(COC(=O)c2ccc(S(=O)(=O)N3CCCC3)cc2)cs1 | >57 | -2%
CC(C)OC(=O)CSc1nnc(Cc2ccccc2)n1Cc1ccco1 | >57 | 6%
COc1ccc(NC(=O)C2CCCN2S(=O)(=O)c2ccc3c(c2)CCC(=O)N3)cc1Cl (centres undefined) | >57 | -5%
CCOC(=O)c1ccc(NC(=O)N(CC)CC)cc1 | >57 | -2%
Cc1ccc(S(=O)(=O)NC(CC(=O)N2CCOCC2)c2ccco2)cc1 (centres undefined) | >57 | 0%
COc1cccc(C=Nc2cc(C)on2)c1O | >57 | 6%
O=C(NCCCN1CCN(c2ccc(F)cc2)CC1)c1cccc(N2CCCC2=O)c1 | >57 | 2%
COCc1cc(C2SCC(=O)Nc3c2c(=O)[nH]n3C(C)C)ccc1OC (centres undefined) | >57 | -2%
CCNC(=O)CC1C(=O)N(c2ccccc2)C(=O)N1CCc1ccc(OC)cc1 (centres undefined) | >57 | -6%
O=C1CCCC2=C1C(c1ccncc1)c1c(nc(SCc3ccccc3)[nH]c1=O)N2 (centres undefined) | >57 | 30%
CC(C)Oc1ccc(C2/C(=C(/O)c3ccc(F)cc3)C(=O)C(=O)N2CCCN(C)C)cc1 (centres undefined) | >57 | x

Reprinted from the listing (4 entries):
SMILES | SmPrx2 inh | Anthrax LT inh
COCc1cc(C2SCC(=O)Nc3c2c(=O)[nH]n3C(C)C)ccc1OC (centres undefined) | >57 | -2%
CCNC(=O)CC1C(=O)N(c2ccccc2)C(=O)N1CCc1ccc(OC)cc1 (centres undefined) | >57 | -6%
O=C1CCCC2=C1C(c1ccncc1)c1c(nc(SCc3ccccc3)[nH]c1=O)N2 (centres undefined) | >57 | 30%
CC(C)Oc1ccc(C2/C(=C(/O)c3ccc(F)cc3)C(=O)C(=O)N2CCCN(C)C)cc1 (centres undefined) | >57 | x

Rewritten as tab-separated lines: 5 of the compounds above
structure	SmPrx2 inh	Anthrax LT inh
Cc1cc(C)c2c(n1)sc1c(N3CCN(CCO)CC3)ncnc12	>57	u
Clc1ccc(-n2ncc3c(NCc4ccc5c(c4)OCO5)ncnc32)cc1	>57	u
c1ccc(SCc2nc(-c3ccncc3)no2)cc1	>57	6%
O=C(O)c1cccc(C[C@H](Br)C(=O)O)c1	>57	-2%[8 µM]
Clc1ccc(OCc2nc(-c3ccccn3)n[nH]2)cc1	>57	-11%

Next part:
SMILES | SmPrx2 inh | Anthrax LT inh
CC(C)=CCSc1nnc(CCNC(=O)OC(C)(C)C)o1 | >57 | -10%
COc1ccc(C(=O)N2CCC3(CC2)CN(c2ccc(-c4ccccc4)cc2)C3)cc1 | >57 | u
CCn1c(=N)c(C(=O)NCCCOC)cc2c(=O)n3cccc(C)c3nc21 | >57 | u
Cc1ccc2c(CN3CCCc4ccccc43)cc(=O)oc2c1C | >57 | 2%
CCc1ccccc1NC1c2ccccc2C(=O)N1c1cc(C)ccn1 (centres undefined) | >57 | -3%
COc1cccc2sc(Nc3nnc(-c4ccccc4Cl)o3)nc12 | >57 | u
CN1C(=O)CSc2ccc(NC(=O)N3CCc4ccccc43)cc21 | >57 | u
CCCc1cc(=O)[nH]c(SCC(=O)Nc2nonc2N)n1 | >57 | 9%
COc1cc(OC)cc(C(=O)N(CN2CCCC2=O)c2ccccc2OC)c1 | >57 | 3%
O=C(O)CCS(=O)(=O)Cc1ccccc1F | >57 | 4%
C=CCn1c(SCc2cccnc2)nnc1-c1ccncc1 | >57 | u
CC(C)C[C@H](NC(=O)N1CCN(c2ccccc2)CC1)C(=O)O | >57 | x
O=C(CSc1ncccn1)Nn1cnnc1 | >57 | x
CCOC(=O)c1[nH]c(C)c(C(=O)NCCC2=CCCCC2)c1C | >57 | -6%
Cn1c(C(O)c2ccc(Cl)cc2)nc(Cl)c1Cl (centres undefined) | >57 | -19%
O=S(=O)(c1ccccc1)N1CCC[C@@]2(CCN(C(c3ccccc3)c3ccccc3)C2)C1 | >57 | 1%
COc1ccccc1OCCCCNCCO | x | -16%
O=C(Nc1ccc2c(c1)OCCO2)c1ccco1 | >57 | 10µM*
COCC(C)n1c(C)cc(C(=O)COC(=O)c2c(NC(C)=O)sc(C)c2C)c1C (centres undefined) | >57 | -7%
OC(CCN1CCCCC1)(c1ccccc1)c1ccccc1 | >57&>57 | -10%[8 µM]
O=C(O)[C@H](Cc1ccccc1)N1C(=O)c2ccncc2C1=O | >57 | u
Cc1csc(NC(=O)c2ccccc2C(=O)O)n1 | >57 | 8%
COc1ccccc1Nc1nc(N)nc(CSc2nc(C)cc(C)n2)n1 | >57 | u
COCCn1c(SCC(=O)c2ccc(F)cc2)nnc1C(C)C | >57 | 6%
NS(=O)(=O)c1cc(C(=O)O)c(NCc2ccco2)cc1Cl | >57 | 3%
Cc1ccc(N(CC(=O)NCc2ccc3c(c2)OCO3)S(C)(=O)=O)cc1 | >57 | 14%
COCCn1c(SCC(=O)Nc2nc(C)c(Cl)cc2Cl)nc2ccccc21 | >57 | -6%
CO[C@H]1COC(=O)[C@H](C)NC(=O)C/C=C\[C@@H](C)[C@@H](NS(=O)(=O)c2ccc(C)cc2)COC(=O)C/C=C\[C@@H]1C | x | -12%[1.6 µM]
c1ccc(CCNc2ncnc3nc[nH]c23)cc1 | >57 | 17%
CCOc1ccc(NC(=O)N(CCN2CCOCC2)Cc2ccc3c(c2)CCCN3CC)cc1 | >57 | 10%
N#CC(C#N)=NNc1cccc(Cl)c1 | x | 2.5µM*
Cc1ccc(NC2=NC(c3ccccc3)n3c(nc(C)cc3=O)N2)cc1 (centres undefined) | >57 | 6%
Cc1c(=O)n(OCc2ccccc2F)c2ccccc2[n+]1[O-] | >57 | -12%
CCOC(=O)C1CCCN(S(=O)(=O)c2cn(C)c(=O)n(C)c2=O)C1 (centres undefined) | >57 | 21%
CN1CCN(S(=O)(=O)c2ccc(NC(=O)C3CCCCC3)cc2)CC1 | >57 | 0%
Cc1ccc(S(=O)(=O)Cn2nnnc2CN2CCOCC2)cc1 | >57 | -7%
COc1ccc(CCNC2=NCC(C)S2)cc1 (centres undefined) | >57 | -8%
CCCn1c(SCC(=O)N2CCCc3ccccc32)nc2c1c(=O)n(C)c(=O)n2C | >57 | 9%
C=CCn1c(O)c(C=Nc2ccc(OC)cc2C)c(=O)[nH]c1=O | >57 | -4%
CCOC(=O)N1CCN(C(=O)c2cc3c(-c4ccc(Cl)cc4)nn(C)c3s2)CC1 | >57 | -12%
CCOC(=O)c1ccc(NC(=O)CC2SCCNC2=O)cc1 (centres undefined) | >57 | -13%
N[C@@H](Cc1[nH]nc2ccccc12)C(=O)O | >57 | -9%[8 µM]
CC1CCC(NC(=O)CC2Oc3ccccc3NC2=O)CC1 (centres undefined) | >57 | -5%
CCOc1ccc(NC(=O)C2CC(C)=C(C)CC2C(=O)O)cc1 (centres undefined) | >57 | -16%
COC(=O)n1c(=S)oc2cc(Cl)ccc21 | >57 | 5%
N#CCCN(C(=O)Nc1ccccc1)c1ccccc1 | >57 | x
CC1CCCCN1S(=O)(=O)c1ccc(NC(=O)CSc2nnnn2C)cc1 (centres undefined) | >57 | 6%
c1ccc2c(c1)nnn2Cc1nnc2sc(-c3ccncc3)nn12 | >57 | 1%
COC(=O)c1ccc(C)c(NC(=O)CN(c2ccc3c(c2)OCO3)S(C)(=O)=O)c1 | >57 | -2%
O=C(NCCN1CCNCC1)c1ccccn1 | >57 | 9%
COc1ccc(OC)c(C2C(C(=O)O)c3ccccc3C(=O)N2C)c1 (centres undefined) | >57 | -30%
Cc1nc2ccccn2c1P(=O)(N1CCCCC1)N1CCCCC1 | >57 | u
CC(=O)Nc1nc2ccccc2n1CCOc1ccccc1 | >57 | 14%
O=C(NCc1ccco1)C(c1cccs1)N(C(=O)Cc1cccs1)c1ccccc1 (centres undefined) | >57 | u
CCN(CC)CCCNC(=O)C1c2ccccc2C(=O)N1Cc1ccc(C)cc1 (centres undefined) | >57 | 11%
Cc1cccc(-c2cc3nc4c(c(N5CCC6(CC5)OCCO6)n3n2)CCCC4)c1 | >57 | u
S=c1[nH]nc(CSc2nc3ccccc3s2)o1 | x | -7%
CCCCCCC(=O)Cc1cc(OC)c(OC)cc1C=C(C(=O)OCC)C(=O)OCC | x | -10%[8 µM]
CCCC(=O)NCCCc1nc2ccccc2n1CCC | >57 | -7%
